Screening results deposited in PubChem by National Center for Advancing Translational Sciences (NCATS).
NS1 inh = inhibitors of influenza NS1 protein function. Potency, µM (top dose mostly 46.1 µM), for the others: top-dose activity, positive = more growth. actives 0.4% (n = 270,000). AID 2326. S. cerevisiae slowed by influenza A NS1, growth recovery by OD600; further: actives are rising curves; nearly all actives have a fitted effect of over 50% in size
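S. cerevisiae expressing influenza A NS1, grown in glucose, washed, then diluted 1:100 into pH 6.0 -URA galactose medium with 23 nl compound. Growth recovery read as OD600; NS1-free strain serves as control.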
SARS PLP yeast = SARS-CoV PLP inhibition in yeast; Potency, µM (series often up to 32.9 µM), for inactives: at the highest dose activity, positive = growth rescue; AID 485353; S. cerevisiae expressing SARS-CoV PLpro, growth rescue; control for the full effect not named in the record; actives 0.19% (n = 330,000); further: 0% is about no effect; nearly all actives have a fitted effect of over 55% in size; growth read by luminescence after 48 h
Cruzain inh Det = cruzain (T. cruzi) inhibition with detergent; P25779; actives 0.43% (n = 200,000); Potency, µM, for inactives: max response, negative = inhibition, most hits filed as inhibitors; purified cruzain, Z-FR-AMC fluorescence, 0.01% Triton; active means well fitted curve in the direction sought with a large enough effect; inconclusive means small, poorly fitted or top-dose-only effect, or another doubt; inactive means no such curve, though single readings can be large; an effect the other way counts as inactive or inconclusive;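 further: plate controls were neutral wells for no effect and buffer without enzyme for full effect; nearly all actives have a fitted effect of over 40% in size; top concentration of the series not given in the record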
Target sequence (P25779 123-467 limits assumed): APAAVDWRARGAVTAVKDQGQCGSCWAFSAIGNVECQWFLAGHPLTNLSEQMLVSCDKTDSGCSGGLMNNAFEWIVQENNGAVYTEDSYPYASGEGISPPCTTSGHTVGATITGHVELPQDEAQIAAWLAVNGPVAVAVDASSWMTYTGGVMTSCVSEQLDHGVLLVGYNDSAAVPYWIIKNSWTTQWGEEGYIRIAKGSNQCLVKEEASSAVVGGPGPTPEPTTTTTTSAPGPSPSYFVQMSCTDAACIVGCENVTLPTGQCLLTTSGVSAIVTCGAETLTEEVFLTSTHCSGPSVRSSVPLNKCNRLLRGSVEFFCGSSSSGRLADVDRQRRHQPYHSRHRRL
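Enzyme 1.5 nM, Z-FR-AMC 2 uM, NaOAc 100 mM pH 5.5, DTT 5 mM, Triton X-100 0.01%; 15 min RT compound preincubation; kinetic ex360/em450, 60 s delta.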
Lassa entry inh = inhibitors of Lassa virus binding or cell entry | Potency, µM (titrated, usually from 37.9 µM), for the others: at the top dose activity change, negative = inhibition, usual class: inhibitors | actives 1.2% (n = 300,000) | Lassa virus pseudotype entry inhibition, cell reporter; control for the full effect not named in the record; active means well fitted inhibition curve with a large enough effect; inconclusive means small, poorly fitted or top-dose-only effect, or effect the other way; inactive means flat fitted curve, though single readings scatter; tested in HEK293 cells; further: on the % scale 0 is the no-effect control and ±100 the full control effect; nearly all actives have a fitted effect of over 50% in size; luciferase read-out
RE007 growth inh = less growth of the S. pombe RE007 Vpr strain | S. pombe RE007 Vpr strain, BacTiter-Glo ATP luminescence, 24 h; control for the full effect not named in the record | Potency, µM (doses to about 92.2 µM), for the others: top-dose activity change, negative = less growth | actives 0.21% (n = 360,000) | AID 651644; active = well fitted falling curve with a large enough effect; inconclusive = small, poorly fitted or top-dose-only effect; inactive = no such curve, though single readings can be large or run the other way;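 further: on the % scale 0 is the no-effect control and ±100 the full control effect; nearly all actives have a fitted effect of over 50% in size; the assay follows cell death caused by Vpr and the record does not say whether a fall means rescue or toxicity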
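Fission yeast RE007 carrying one integrated HIV-1 vpr copy, seeded at OD 0.01 in PMG+AL medium with 23 nL pinned compound. Grown 24 h at 30 degrees; viability read by BacTiter-Glo luminescence after 5 min.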
Cruzain noTriton = blocks cruzain activity in detergent-free assay; Potency, µM, without a hit: max response, negative = inhibition, usual class: inhibitors; P25779; purified cruzain, Z-FR-AMC fluorescence, no detergent; actives 2.3% (n = 200,000); active means well fitted curve in the direction sought with a large enough effect; inconclusive means small, poorly fitted or top-dose-only effect, or another doubt; inactive means no such curve, though single readings can be large; an effect the other way counts as inactive or inconclusive;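 further: plate controls were enzyme without inhibitor for no effect and buffer without enzyme for full effect; nearly all actives have a fitted effect of over 40% in size; top concentration of the series not given in the record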
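Purified cruzain at 1.5 nM, pre-incubated 15 min with compound at room temperature in 100 mM sodium acetate pH 5.5, 5 mM DTT, 0.00005% Triton X-100. Reaction started with 2 uM Z-FR-AMC; AMC fluorescence increase over 60 s gives rate.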
MARV entry inh = inhibitors of Marburg virus binding or cell entry | Potency, µM (series often up to 37.8 µM), without a hit: at the highest dose activity change, negative = inhibition, most hits filed as inhibitors | AID 540276 | actives 1.8% (n = 300,000) | Marburg virus pseudotyped entry inhibition, cell reporter; control for the full effect not named in the record; about a third of the inactives were read at about 46 µM; active = well fitted inhibition curve with a large enough effect; inconclusive = small, poorly fitted or top-dose-only effect, or effect the other way; inactive = flat fitted curve, though single readings scatter; tested in HEK293 cells; about a fifth of its hits are not listed in these tables; further: on the % scale 0 is the no-effect control and ±100 the full control effect; luciferase read-out
2A StopGo = lowers the luciferase signal of an FMDV 2A StopGo reporter; human cells with a luciferase reporter of 2A StopGo recoding; control for the full effect not named in the record; Potency, µM (series often up to 57.9 µM), without a hit: top-dose signal change, negative = less light; actives 1.2% (n = 410,000); active = well fitted falling curve with a large enough effect; inconclusive = small, poorly fitted or top-dose-only effect; inactive = no such curve, though single readings can be large or run the other way; tested in HEK293T cells; further: on the % scale 0 is the no-effect control and ±100 the full control effect; nearly all actives have a fitted effect of over 45% in size; luciferase light after 4 h
An asterisk follows results filed as active; ? = inconclusive; . = no result given; & = joins results of further samples; [ ] = another dose, or the depositor's remark. Unless noted, the call rests on the fitted dose curve; in most records, active means well fitted rising curve with a large enough effect; inconclusive means small, poorly fitted or top-dose-only effect; inactive means no such curve, though single readings can be large or run the other way. Potency means the concentration at half of the fitted maximal effect.

Compound	NS1 inh	SARS PLP yeast	Cruzain inh Det	Lassa entry inh	RE007 growth inh	Cruzain noTriton	MARV entry inh	2A StopGo
COCc1ccc(CN2CCCC(C(=O)c3sccc3C)C2)o1 (stereo not given)	1%	1%	.	-14%[46.1 µM]	-6%	.	-14%[46.1 µM]	-13%
COc1ccc(C(=O)N2CCC(n3nnc4cc(F)ccc43)CC2)cc1OC	-7%	1%	.	-3%	18%	.	-17%[46.1 µM]	-8%
Cc1ccc(Oc2ncccc2N)c2c1CCC2	-7%	-2%	.	3%	48%	.	-16%[46.1 µM]	-3%
COCCNC(=O)C(c1ccc(O)cc1)N(Cc1ccco1)C(=O)CCC(=O)Nc1ccccn1 (stereo not given)	6%	-1%	.	-6%[46.1 µM]	-17%	.	-1%[46.1 µM]	21%
CCc1ccccc1NC(=O)c1cccc(Oc2ccc([N+](=O)[O-])cc2Cl)c1	3%	-9%	-6.0%	-18%[46.1 µM]	7%	-28%	?	-26%
CNC(=O)/C(C#N)=C/c1c(N(Cc2ccccc2)Cc2ccccc2)nc2c(C)cccn2c1=O	?	2%	-6.8%	?	-10%	?	?	?
CCOC(=O)C1(Cc2ccccc2C)CCCN(C(=O)CN2C(=O)CSC2=O)C1 (stereo not given)	14%	6%	.	3%[46.1 µM]	5%	.	2%[46.1 µM]	10%
CC(=O)Nc1ccc(Oc2ccc(-c3noc(C)n3)cc2)cc1	18%	.	1.2%	-1%	24%	4%	2%	1%
COC(=O)C1=C(C(=O)OC)[C@@H]2N(Cc3ccccc3)c3ccccc3[C@@]23C[C@@H](C(=O)OC)N(C(=O)c2cccs2)C3=N1	-7%	1%	.	?	-3%	.	?	?
COc1cc(/C=N/O)cc(Br)c1OS(=O)(=O)c1ccc(C)cc1	-182%	-38%	-14%	-12%	?	-1%	?	-29%
Cc1ccc(CNC(=O)CSc2nc3n[nH]c(C)c3c(=N)n2-c2cccc(C)c2)cc1	17%	-3%	-3.4%&2.0%	?	11%	?	?	-9%&-9%
CN(CC(=O)Nc1n[nH]c(=S)s1)S(=O)(=O)c1cccc2cccnc12	9%	3%	.	.	6%	.	.	-16%
CCCn1c(SCC(=O)N2CCc3ccccc32)nnc1-c1ccncc1	-13%	-10%	2.5%	.	.	1%	0%	.
COc1ccc(NC(=O)CSC2CCCCC2)cc1	-7%	-3%	-2.7%	?	11%	-22%	?	63%[activator]
NC(Cc1ccc(O)cc1)C(=O)NN=Cc1ccc(N(CCCl)CCCl)cc1 (stereo not given)	.	.	.	4µM*	-21%	.	1.3µM*	0%
O=C(O)CCC(=O)Nc1ccc(Sc2ccc([N+](=O)[O-])cc2)cc1	-3%	7%	-4.7%	6%	6%	10%	?	-7%
COc1ccc(CC(=O)Nc2ccc(S(=O)(=O)N(C)C)cc2)cc1OC	1%	3%	6.7%	3%	-16%	4%	-29%	-26%
COc1ccc(-c2cc(-c3ccccc3)c(C#N)c(SCC(=O)Nc3ncc(C)s3)n2)cc1	-3%	?	-3.1%	-14%	-5%	?	?	-9%
Cc1cc(N/N=C/c2ccc(O)cc2O)nc(-n2nc(C)cc2C)n1	23%	18%	-3.7%	7.3µM*	26%	-12%	3.7µM*	?
O=C(Nc1ccc(C(=O)N2CCCC2)cc1)c1ccccc1[N+](=O)[O-]	.	-1%	.	?	3%	.	2%	21%
CC(=O)Nc1ccc(S(=O)(=O)N2CCC(n3c(C(F)(F)F)nc4cccnc43)CC2)cc1	.	.	-1.4%	-1%[46.1 µM]	.	0%	.	3%
O=C(NCC1CCCO1)/C(=C\c1ccccc1)NC(=O)c1ccccc1 (stereo not given)	-8%	0%	.	8%	52%	.	-20%[46.1 µM]	-7%
COc1cc(OC)cc(C(=O)Nc2nnc(NC(=S)Nc3ccccc3)s2)c1	19%	3%	-9.3%	0%	13%	?	?	-20%
CCc1ccccc1NC(=O)CC(C)n1nc(C)cc1C (stereo not given)	.	.	-1.6%	-17%[46.1 µM]	.	4%	.	0%
COc1ccc(/C=N/Nc2nc(C)cc(-c3ccccc3)n2)c(OC)c1	-5%	8%	.	0%	5%	.	-3%	-23%
CC(C)=C1C2CCC1C(C(=O)Nc1sc(C)c(-c3ccc(C(C)C)cc3)c1C(N)=O)C2C(=O)O (stereo not given)	22%	-26%	-12%	?	.	-28%	21µM*	-13%
O=C(c1cccnc1)C1CCCN(Cc2nc(Cc3ccccc3F)no2)C1 (stereo not given)	-10%	-1%	.	-8%[46.1 µM]	-11%	.	14%[46.1 µM]	-11%
NC(=O)N/N=C/c1cccc(C(F)(F)F)c1	4%	1%	.	.	-6%	.	.	0%
COc1ccc(C(=O)Nc2c(N)nc[nH]c2=O)cc1	.	.	.	-8%[46.1 µM]	-5%	.	?	-2%
Cc1cc(C)nc(NC(=O)c2ccc(C)c(C)c2)n1	14%	-13%	.	16%	6%	.	-4%	6%

Compound profiles, from the list above. Values in the order: NS1 inh, SARS PLP yeast, Cruzain inh Det, Lassa entry inh, RE007 growth inh, Cruzain noTriton, MARV entry inh, 2A StopGo
CC(=O)Nc1ccc(S(=O)(=O)N2CCC(n3c(C(F)(F)F)nc4cccnc43)CC2)cc1 reads ., ., -1.4%, -1%[46.1 µM], ., 0%, ., 3%
COc1ccc(C(=O)Nc2c(N)nc[nH]c2=O)cc1 reads ., ., ., -8%[46.1 µM], -5%, ., ?, -2%
NC(=O)N/N=C/c1cccc(C(F)(F)F)c1 reads 4%, 1%, ., ., -6%, ., ., 0%

Carrying on:
Compound	NS1 inh	SARS PLP yeast	Cruzain inh Det	Lassa entry inh	RE007 growth inh	Cruzain noTriton	MARV entry inh	2A StopGo
O=C(Nc1ccccn1)c1ccc(=O)[nH]n1	4%	-6%	2.5%	1%	-14%	1%	?	-3%
CC1=NN(Cc2ccccc2)C(=O)C1C(c1ccc(Cl)cc1)C(C#N)C#N (stereo not given)	6%	-2%	-4.7%	?	-3%	1%	-13%	28µM*
O=C(Nc1ncccn1)C1=C(O)c2ccccc2S(=O)(=O)N1Cc1ccccc1	-2%	-2%	.	.	-3%	.	.	-26%
Cc1cc(C)c(Cn2c(=O)n(CCC(=O)NCCc3ccccc3)c(=O)c3ccccc32)c(C)c1	.	.	0.2%	1%[46.1 µM]	.	-6%	-24%[46.1 µM]	-2%
Cc1ccccc1CNC(=O)CN(c1ccccc1Cl)S(C)(=O)=O	24%	-6%	.	.	9%	.	.	-9%
CCCOc1c(Br)cc(C2C3=C(CCCC3=O)N(CC)C3=C2C(=O)CCC3)cc1OC	.	-1%	.	?	0%	.	?	44%[activator]
COc1ccc(CC2(CO)CCN(Cc3ccc4c(c3)CCO4)CC2)cc1	1%	-1%	.	-13%	-13%	.	?	-30%
Cn1c(=O)c2c(nc(SCCN3CCOCC3)n2Cc2ccccc2Cl)n(C)c1=O	-30%	9%	-8.8%	.	-10%	-9%	.	0%
COCCN(Cc1cc2cc3c(cc2nc1Cl)OCO3)C(C)=O	4%	0%	.	.	4%	.	.	-13%
COc1ccc(CC(=O)Nc2c3c(nn2-c2cccc(C)c2C)CS(=O)C3)cc1OC (stereo not given)	-7%	0%	4.6%	11%	7%	2%	2%	-8%
COc1ccc(C(=O)Cn2cc[n+](C)c2)cc1	-3%	0%	.	-28%	-16%	.	-24%	2%
COc1ccc(-c2nnc3ccc(SCC(=O)NCc4ccco4)nn23)cc1	6%	4%	2.6%	4%	18%	-2%	-13%	11%
Oc1c(Cl)cc(Cl)cc1/C=N/c1ncn[nH]1	-45%	-1%	.	.	.	.	-4%	-12%
O=C(c1c(F)cccc1F)N1CCN(c2cccc(C(F)(F)F)c2)CC1	-82%	-4%	-14%	?	-9%	18%	?	-19%
Nc1nc(-c2ccccc2)c(N=Nc2cccc3ccccc23)s1	6%	-65%	-3.0%	-14%	-5%	?	?	?
COC(=O)c1ccccc1NC(=O)Cn1cnc2c(cnn2-c2ccc(C)c(C)c2)c1=O	.	.	.	15%	2%	.	4%	-16%
C[C@H](NC(=O)[C@@H]1Cc2ccccc2CN1C(=O)OC(C)(C)C)C(=O)NCc1ccco1	8%	2%	.	.	9%	.	.	0%
COCC(C)OC(=O)C(C#N)c1nc2ccccc2nc1N1CCN(Cc2ccccc2)CC1 (stereo not given)	-23%	3%	-5.4%	3%	11%	-5%	-2%	?
Cn1c(CS(=O)Cc2c(Cl)cccc2Cl)nnc1SCc1ccc(Cl)cc1 (stereo not given)	6%	0%	-0.5%	6%	-7%	0%	-16%	-3%
Cc1cc2oc(=O)cc(CN3CCCCC3C)c2cc1Cl (stereo not given)	2%	0%	.	.	-5%	.	.	-21%
CC1CCCC(C)N1C(=O)COc1cccc(Oc2ccccc2)c1 (stereo not given)	.	-4%	.	-23%	11%	.	?	-1%
O=C1NCC2=C1C(c1ccc(Br)cc1)Nc1ccccc1N2 (stereo not given)	-23%	-2%	1.6%	29%	14%	-3%	4%	25%
COc1cccc(NC(=S)NCCN2CCOCC2)c1	6%	-6%	-1.6%	6%	-8%	-2%	19%	-6%
COc1ccc(NC(=O)COC(=O)CCCOc2ccc(Cl)cc2Cl)cc1Cl	-17%	-22%	-6.3%	2%	3%	9%	28%[46.1 µM]	31%[activator]
Cc1ccc(S(=O)(=O)NCC(=O)N(CC(=O)NC2CCCC2)CC2CCCO2)cc1 (stereo not given)	-7%	-4%	.	-9%	6%	.	-18%[46.1 µM]	14%
CCOC(=O)N1CCN(S(=O)(=O)N2CCCC(C(=O)NCc3ccc(F)cc3)C2)CC1 (stereo not given)	?	15%	.	.	7%	.	.	-11%
